Source: PubChem BioAssay
RN4220 kill – kills Staphylococcus aureus RN4220. S. aureus RN4220 growth, OD600, 16 h. inhibition, % (no concentration beside the values). actives 0.33% (n = 330,000). AID 1259311;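 active = z-score of -3 or lower and OD600 up to 0.18 on both plates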;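 also: plate controls were untreated cells for no effect and reference antibiotic for full effect; stock transfer was 100 nL into about 80 µL; one replicate is shown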
BJeLR lethal – BJeLR cell viability loss | BJeLR (HRASV12) viability, CellTiter-Glo ATP luminescence, 48 h; reference of the scale not given here | inhibition, % (concentration not given with the values) | actives 0.17% (n = 300,000);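 active = replicate mean above 50%; inconclusive = above 50% but judged a plate artefact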;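 also: 50 nL library stock added to about 25 µL; numbers are from one replicate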
ugtP null kill – growth inhibition of S. aureus ugtP deletion strain. S. aureus RN4220 ugtP deletion, OD600 growth, 16 h; some inactives read as strong as hits. growth inhibition, % (concentration not given with the values). actives 0.54% (n = 330,000). AID 1259309;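 active = z-score under -3 and OD600 up to 0.15 on both plates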;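 also: plate controls were untreated wells for no effect and antibiotic for full effect; wells of about 80 µL received 100 nL stock; the first replicate is given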
PrP 5UTR inh – inhibition of PrP 5' UTR reporter expression; cell-based PrP 5' UTR mRNA reporter, plate reader; inhibition, % (test concentration not listed); actives 0.35% (n = 340,000); AID 488862;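 active = every replicate at 50% or more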;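 also: 0 = median of the neutral control wells; tested in H4 reporter cells; numbers are from one replicate; inactives centre near -14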
Mtb hypoxia inh – reduces hypoxia-regulated biosensor signal in M. tuberculosis; M. tuberculosis hypoxia-regulated fluorescent reporter, fluorescence; fluorescence inhibition, % (concentration not given with the values); AID 1159583; actives 0.1% (n = 300,000);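 active = 35 to 45% if threefold the growth effect, above 45% if 1.5-fold the growth effect; inactive = the rest, general growth blockers included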;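 also: wells of about 50 µL received 100 nL stock; 0% = vehicle wells and 100% = reference inhibitor wells; whole bacteria with a GFP reporter of the hypoxia response; strong numbers were not always called active; many hits fall short of the cut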
Autofluor counter – flagged as autofluorescent in microsphere protease counterscreen. fluorescence intensity (no concentration beside the values). actives 3.1% (n = 360,000). compound autofluorescence counterscreen, microsphere flow cytometry; hits give high values;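 active = at least 3 SD above the mean of all compounds, about 16000 in these data; inconclusive = too few beads counted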;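 also: 100 nL of 1 mM stock went into each well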
Mtb hypoxia inh growth – second read-out of Mtb hypoxia inh, no call of its own (marks repeat the call); growth inhibition, %; measured here: M. tuberculosis growth (absorbance);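 0% = vehicle and 100% = reference antibiotic; read after six days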
Numbers without * were called inactive; ? = inconclusive; . = no result given; & = joins results of further samples.

Structure,RN4220 kill,BJeLR lethal,ugtP null kill,PrP 5UTR inh,Mtb hypoxia inh,Mtb hypoxia inh growth,Autofluor counter
[O-]C1=N/[N+](=C/c2ccccc2Cl)CC1,.,5,.,6,.,.,3527
CCCCN1C(=O)c2ccc(C(=O)NCCN3C(=O)S/C(=C\c4cccnc4)C3=O)cc2C1=O,3.2,-7,7,0,12,4,2009
O=C(CN1CCN(c2ccccc2F)CC1)c1c[nH]c2ccc(F)cc12,5.0,-3,-9,-11,7,14,4256
Cc1cccc(OCCn2nnc3ccccc32)c1C,7.9,7,1,-41,13,4,.
O=C1N/C(=N\N=Cc2cccs2)SC1Cc1cccc(Cl)c1Cl (stereo not given),-2.7,.,11,.,12,5,.
O=C(CSc1nnc(-c2ccco2)o1)c1ccc(F)c(F)c1,4.5,-5,-15,-16,12,12,21701*
COC(=O)c1cc(-c2ccc(C)cc2)n[nH]1,9.3,0,-5,-40,2,11,2719
O=C(O)C1C2CCC(O2)C1C(=O)NCCC1=CCCCC1 (stereo not given),-7.1,-1,-7,-10,0,5,3606

Structure,RN4220 kill,BJeLR lethal,ugtP null kill,PrP 5UTR inh,Mtb hypoxia inh,Mtb hypoxia inh growth,Autofluor counter
Cc1ccc(S(=O)(=O)N(C)C)cc1NC(=O)CSc1nc2ccccc2c(=O)n1CC1CCCO1 (stereo not given),5.0,0,4,-8,2,2,5034
C=C(Br)Cn1cnc2ccccc21,7.1,0,4,-7,13,-1,4380
Cc1ccsc1C(=O)c1sccc1C,8.0,4,-2,1,10,11,2176
O=C(NCc1ccncc1)c1ccc(N2CCCC2)c([N+](=O)[O-])c1,8.6,3,13,-6,6,-5,4491
COc1ccc(C2CC(c3cccs3)=NN2c2nc(-c3ccccc3)cs2)cc1OC (stereo not given),3.1,8,-4,-25,6,9,4635
C[C@H](CO)N1C[C@H](C)[C@@H](CN(C)Cc2ccc(C(=O)O)cc2)Oc2ccc(NC(=O)Cn3cnnn3)cc2C1=O,3.9,.,7,-5,3,5,2964
CC(=O)NNc1nc(-c2ccccc2)c2cc(Br)ccc2n1,2.7,-6,9,-13,7,9,4688
Cc1ccc(NC(=S)Nc2ccc(F)cc2)cc1C,-0.8,7,-1,-6,16,5,.

Structure,RN4220 kill,BJeLR lethal,ugtP null kill,PrP 5UTR inh,Mtb hypoxia inh,Mtb hypoxia inh growth,Autofluor counter
N#Cc1cc2cc3c(cc2nc1SCC(=O)OC1CCCCC1)OCO3,2.4,-1,-2,-24,.,.,3288
CC(C)CCNC(=O)CN(Cc1ccccc1)C(=O)CCC(=O)Nc1ccccn1,1.3,-12,0,-18,-1,1,4150
CCOC(=O)N/N=C\c1ccc(-c2cccc(C(F)(F)F)c2)o1,.,-4,.,-19,.,.,2651
CN(C(=O)COc1cc(C(F)(F)F)nn1C)c1ccccc1,2.5,-3,6,1,5,0,4135
CC(OC(=O)CCN=C1NS(=O)(=O)c2ccccc21)C(=O)N(C)c1ccccc1 (stereo not given),3.5,2,1,-24,-2,1,6865
Cn1nccc1NC(=O)Nc1ccc(Cl)cc1,-1.8,-1,-10,6,-1,-4,4556
CC(OC(=O)c1cccc(S(=O)(=O)N(C)C)c1)C(=O)NCC(=O)Nc1ccc(F)c(F)c1F (stereo not given),0.5,.,-2,0,1,4,?
CS(=O)(=O)N1N=C(c2ccc3nccnc3c2)CC1c1ccccc1 (stereo not given),5.7,1,-1,-10,9,6,24132*

Structure,RN4220 kill,BJeLR lethal,ugtP null kill,PrP 5UTR inh,Mtb hypoxia inh,Mtb hypoxia inh growth,Autofluor counter
O=C(CSc1nnnn1-c1ccccc1)N1CCc2ccccc21,5.1,-7,4,-27,10,6,9943
CN(CC(=O)Nc1c(Cl)cccc1Cl)C(=O)Cc1cccs1,4.5,.,0,.,0,13,?
O=C(Nc1ccc(F)cc1)c1cccc(NC(=O)C2C3CC4OC(=O)C2C4C3)c1 (stereo not given),3.1,2,6,-30,1,4,8629
CSc1nc(N)nc2c1ncn2CC(=O)NCCNc1ccc([N+](=O)[O-])cn1,3.5,.,1,-25,-16,-12,3364
COc1ccc(Cc2nnc(SCC(=O)N3CCc4ccccc4C3)o2)cc1,-0.4,-7,0,-14,9,5,6782
CN(C)S(=O)(=O)c1cccc(NC(=O)c2cc3c(cc2Cl)N2CCCCCC2=NS3(=O)=O)c1,0.1,8,-4,-13,-1,3,2803
O=C(Nc1nccs1)c1ccc([N+](=O)[O-])cc1Cl,6.8,-5,14,-11,4,3,.
O=C1c2ccc([N+](=O)[O-])cc2C(=O)N1CNc1ccccn1,3.6,-4,3,-15,6,8,5098

Structure,RN4220 kill,BJeLR lethal,ugtP null kill,PrP 5UTR inh,Mtb hypoxia inh,Mtb hypoxia inh growth,Autofluor counter
CCOc1ccc(N(C)S(=O)(=O)c2cc(-c3cc(C)no3)ccc2C)cc1,.,-6,.,-46,.,.,5194
O=C(COc1ccc(F)c(Cl)c1)c1ccc[nH]1,5.6,-2,-3,-26,7,5,4078
CC(C)C1N=C2c3ccccc3N=C(SCC(=O)c3ccc(O)c(O)c3)N2C1=O (stereo not given),9.6,7,0,-14,-81,-22,4183
Cn1c(=O)c2cc(S(=O)(=O)NCCC(=O)Nc3ccc(F)cc3F)ccc2n(C)c1=O,-2.4,11,5,-10,15,8,3949
NC1=NCC(Cc2ccc(O)cc2)N1CCCCC1CCCCC1 (stereo not given),101*,.,100*,.,-8,3,.
CC(C)CC1CN=C(Nc2ccccc2)N1CCc1ccc(F)cc1 (stereo not given),3.3,.,-3,.,6,5,.
O=C(Nc1ccc(NC(=O)C2CCCCC2)nc1)c1cccs1,-4.4,-3,6,-46,7,10,2942
CCOC(=O)CN(C(=O)CSc1nnc(COc2ccc(OC)cc2)n1CC)c1ccccc1,3.6,-1,7,-22,13,6,3593

Structure,RN4220 kill,BJeLR lethal,ugtP null kill,PrP 5UTR inh,Mtb hypoxia inh,Mtb hypoxia inh growth,Autofluor counter
COc1ccc(C2CCCN2C(=S)Nc2cccc(Cl)c2)cc1OC (stereo not given),4.2,-3,10,-2,2,6,4414
c1cncc(CNCc2ccco2)c1,1.9,-7,4,-16,7,7,3666
N#Cc1ccccc1OCC(=O)NNC(=O)CCNC(=O)c1ccccc1,4.7,.,10,-14,5,2,4168
CC(Sc1nc2ccccc2c(=O)n1CCCN1CCOCC1)C(=O)N1CCc2ccccc21 (stereo not given),1.6,.,1,-13,8,-4,5263
CSc1ncc(/C=C2/C(=O)NC(=O)N(c3ccc(C)cc3)C2=O)cn1,2.5,-4,4,-15,-6,-3,3471
O=C(OCC(=O)N1CCN(c2ccccc2)CC1)c1ncc(Cl)c(Cl)c1Cl,-0.8,1,0,-18,16,8,4534
CC1CC(OC(=O)C(O)c2ccccc2)CC(C)(C)N1C (stereo not given),3.6,0,-3,-6&9,3,10,4282
CC1CCN(C(=O)COC(=O)CCC(=O)c2cccs2)CC1,2.0,.,2,-14,-3,-7,5851

Structure,RN4220 kill,BJeLR lethal,ugtP null kill,PrP 5UTR inh,Mtb hypoxia inh,Mtb hypoxia inh growth,Autofluor counter
CCOC(=O)c1ccc(N(CC(=O)NCC2CCCO2)C(=O)CCC(=O)Nc2cc(C)on2)cc1 (stereo not given),3.4,-13,6,25,9,1,6186
O=C(Nc1cccc(S(=O)(=O)Nc2ccccc2Cl)c1)c1ccc(Cl)nc1,10,8,1,-47,2,6,8549
O=c1c2ccccc2nc2n1C1(CCCCC1)Cc1ccccc1-2,-4.0,-5,63,-34,2,6,9445
O=C(O)c1ccc(Cl)c(S(=O)(=O)N(Cc2ccccc2)c2ccc(Cl)cc2)c1,16,-7,16,-5,-8,-7,3728
Nc1cc(N)nc(SCc2ccc(Cl)cc2)n1,-13,-5,11,-32,13,-8,4254
CCCC(CCC)C(=O)Nc1c[nH]c(=O)[nH]c1=O,0.7,6,-1,-14,10,16,10632
O=C(NCCc1ccccc1)C1CCCN1S(=O)(=O)c1ccc(Cl)cc1 (stereo not given),2.1,4,1,-5,-6,9,6202
Cc1ccc(C(=O)Nc2ccc(N3CCN(S(C)(=O)=O)CC3)cc2)cc1,2.7,-2,5,-22,9,2,6489

Structure,RN4220 kill,BJeLR lethal,ugtP null kill,PrP 5UTR inh,Mtb hypoxia inh,Mtb hypoxia inh growth,Autofluor counter
COc1ccc(OC)c(/C=C2\NC(=O)NC2=O)c1,4.3,0,1,-11,-2,-3,6990
Cc1c(Cl)cccc1NC(=S)NCCC(C)C,-1.2,2,0,-3,11,-1,.
COCCNC(=O)Cn1c(=O)n(Cc2ccc(C(=O)NCCc3ccc(OC)c(OC)c3)cc2)c(=O)c2ccccc21,1.6,-3,2,-11,-3,2,5142
COc1ccc(-c2noc(C3CCCN(C(=O)c4cccc(F)c4)C3)n2)cc1 (stereo not given),1.1,-1,7,-10,3,-3,.
Cn1cccc1C=NNC(=O)c1cc2ccccc2cc1O,3.5,.,8,.,9,5,.
Cc1ccc(C)c(C=NNc2ccccn2)c1,-3.0,.,3,.,2,8,.
CCCn1c(=O)c2[nH]c(-c3ccc(OCC(=O)Nc4ccc(C#N)cc4)cc3)nc2n(CCC)c1=O,5.6,.,2,-21,5,1,5789
CCS(=O)(=O)Nc1cccc(-c2ccc3nnc(-c4cccnc4)n3n2)c1,3.2,-6,1,-1,2,-3,5488

Structure,RN4220 kill,BJeLR lethal,ugtP null kill,PrP 5UTR inh,Mtb hypoxia inh,Mtb hypoxia inh growth,Autofluor counter
C=CCC1CCCC(=NNS(=O)(=O)c2ccc(C)cc2)C1 (stereo not given),-2.4,.,-3,.,-3,-19,.
O=c1ccc2cc(S(=O)(=O)N3CCN(c4ccccc4F)CC3)ccc2o1,-0.3,4,0,-5,13,2,6138
COc1ccc(/C=N\NS(=O)(=O)c2ccc(Br)cc2)cc1COc1ccccc1[N+](=O)[O-],.,1,.,-2,.,.,2984
COc1ccc(CN2CCC(C)CC2)cc1OCc1ccccc1,1.8,0,1,-17,-9,0,4136
COc1ccc(C)cc1NC(=O)c1sc2nc(C)nc(N3CCOCC3)c2c1C,6.6,-11,3,-9,-4,-6,6091
COC(=O)CCCC1=CC2=CC(=O)C(C)(OC(=O)c3cccs3)C(=O)C2=CN1c1ccccc1 (stereo not given),6.4,10,-4,-16,-10,-3,3917
O=C(NCc1ccccn1)c1ccc(Cl)c(S(=O)(=O)N2CCOCC2)c1,5.4,1,8,-13,-6,-4,6436
Cc1nc2cc(NC(=O)Nc3ccccc3Cl)ccc2n1C,2.2,5,16,-54,4,13,4370

Structure,RN4220 kill,BJeLR lethal,ugtP null kill,PrP 5UTR inh,Mtb hypoxia inh,Mtb hypoxia inh growth,Autofluor counter
CN(C)c1ccnc2sc(C(=O)c3ccc(Br)cc3)c(N)c12,3.5,4,1,-97,0,-1,2108
CC(=O)c1cccc(NC(=O)CN2C(=O)c3cccnc3Oc3ccc(Cl)cc32)c1,-1.8,-10,0,-9,-1,-2,8176
CC(C(=O)NC1CCCC1)N(C(=O)c1snc(C(N)=O)c1N)c1ccc2c(c1)OCCO2 (stereo not given),-2.4,10,-2,-3,-4,2,.
N#C/C(=C\c1ccc(F)cc1)C(=O)NC1CCS(=O)(=O)C1 (stereo not given),2.0,1,3,-23,0,-2,6029
CCC(C)NC(=O)c1c(N)n(CCCOC)c2nc3ccccc3nc12 (stereo not given),2.4,-4,-11,-17,2,15,17608*
O=C(Cn1ccc(C(F)(F)F)n1)N/N=C/c1ccc(N2CCOCC2)cc1,.,1,.,7,.,.,4251
Cc1ccc(OCC(=O)Nc2cnn(CCCC(=O)O)c2)c([N+](=O)[O-])c1,0.9,-11,-4,-2,14,13,3394
O=C(COc1ccc(-c2nnco2)cc1)N1CCOCC1,-3.7,.,-6,4,3,0,2818

Structure,RN4220 kill,BJeLR lethal,ugtP null kill,PrP 5UTR inh,Mtb hypoxia inh,Mtb hypoxia inh growth,Autofluor counter
CCCOc1ccc(NC(=O)CC2C(=O)OCC3CCCCN32)cc1 (stereo not given),-0.1,.,1,.,1,0,5253
Cn1ncc(C#N)c1NC(=O)C1CC(c2ccc(Cl)cc2)=NO1 (stereo not given),0.7,-1,0,-23,-2,8,2963
Cn1cc(CN2CCCC(CNS(=O)(=O)c3cccc4cccnc34)C2)cn1 (stereo not given),5.2,-3,15,6,-3,-7,5092
Cc1ccc(S(=O)(=O)Nc2nc3ccc(S(=O)(=O)N4CCCC4)cc3s2)cc1,12,-15,-7,-17,0,5,10858
